# From PubChem
# GALR2 agonist: activates the human galanin receptor 2; activation, %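 (tested at 5 µM)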; 140,000 tested, 0.48% active; O43603; GALR2-expressing cells, agonist activation read-out;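 active = above mean plus 3 SD of all compounds, about 5% in these data, not always enough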;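 also: 0% = vehicle buffer wells and 100% = reference agonist at full effect; tested in CHO reporter cells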
# PKD1 inh: blocks activity of human protein kinase D1 | 200,000 tested, 0.056% active | inhibition, %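 (about 10 µM by stock and volumes)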 | PKD1 kinase fluorescence polarization assay;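 active = inhibition of 50% or more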;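 also: controls were vehicle for no effect and a reference inhibitor for full effect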
# Target sequence (Q15139 whole entry, looked up): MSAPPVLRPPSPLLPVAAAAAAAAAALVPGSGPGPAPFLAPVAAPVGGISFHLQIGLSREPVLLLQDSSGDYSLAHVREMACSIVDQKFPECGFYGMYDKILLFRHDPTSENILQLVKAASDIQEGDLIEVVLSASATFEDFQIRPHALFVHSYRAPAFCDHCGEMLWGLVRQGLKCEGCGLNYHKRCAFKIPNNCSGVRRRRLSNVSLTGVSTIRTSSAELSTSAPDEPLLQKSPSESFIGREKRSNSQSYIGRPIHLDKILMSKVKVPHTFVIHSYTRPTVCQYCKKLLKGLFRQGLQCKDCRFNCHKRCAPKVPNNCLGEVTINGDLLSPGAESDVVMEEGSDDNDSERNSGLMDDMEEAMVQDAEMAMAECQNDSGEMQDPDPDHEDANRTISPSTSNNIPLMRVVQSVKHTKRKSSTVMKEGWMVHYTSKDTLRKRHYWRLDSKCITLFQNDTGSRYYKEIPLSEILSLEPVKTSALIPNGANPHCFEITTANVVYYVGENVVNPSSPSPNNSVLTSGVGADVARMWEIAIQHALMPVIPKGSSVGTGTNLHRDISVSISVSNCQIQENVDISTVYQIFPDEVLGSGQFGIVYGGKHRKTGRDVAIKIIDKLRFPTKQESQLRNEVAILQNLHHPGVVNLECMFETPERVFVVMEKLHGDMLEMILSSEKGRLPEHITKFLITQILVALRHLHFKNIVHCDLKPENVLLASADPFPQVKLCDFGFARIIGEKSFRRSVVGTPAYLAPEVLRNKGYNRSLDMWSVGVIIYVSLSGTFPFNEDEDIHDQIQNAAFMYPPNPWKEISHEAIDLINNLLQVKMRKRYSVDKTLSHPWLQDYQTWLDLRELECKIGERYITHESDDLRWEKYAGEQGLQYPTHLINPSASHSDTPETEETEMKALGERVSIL
# HSV replic up: HSV replication enhancement; 220,000 tested, 0.005% active; maximum fold increase; HSV replication augmentation in cells, fold increase;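 active = peak rise of 1.5-fold or more in the series; tested in PC3 cells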;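 also: first round at 10 µM; read as green reporter fluorescence; hits show the peak of a series up to 25 µM; 1 = signal of infected wells without compound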
# RGS16-Gao: regulators of human RGS16-Galphao interaction. AID 1441. bead-based flow cytometry RGS16-Galphao binding, fluorescence; actives lie on both sides. O15492+P09471. binding response (% of control), % at 10 µM. 220,000 tested, 0.38% active;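 active = below 25% or above 175%, edge rows of some plates excepted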;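 also: Galphao activated by GDP with aluminum fluoride before binding; 100% = wells without compound and 0% = beads without RGS; some results beyond the cut were filed as inactive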
# INS promoter inh: TRM-6 insulin promoter activity inhibition. TRM-6 cells (human fetal islet line), insulin promoter-eGFP reporter, imaging; reporter expression induced with tamoxifen. inhibition, % at 2 µM. 130,000 tested, 0.9% active. AID 1273;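 active = inhibition above the mean plus 3 SD, with well images judged a real hit on visual review, cut at about 60% in these data, passing the limit was not always enough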
# INS promoter inh cell count: also measured in INS promoter inh; calls as there; normalized cell count, %; measured here: cell count, toxicity; reference of the scale not given here;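 cells exposed to compound for 48 h; stained nuclei by imaging scaled within each plate; lower means fewer cells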
# HSV replic up primary fold: recorded beside HSV replic up, whose call it bears; fold increase; compound at 10 µM; measured here: primary screen fold increase 10 uM; tested in PC3 cells;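 GFP signal in the first replicate; 1 = infected wells without compound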
# Starred values were filed as active, the others as inactive; i = inactive; / = no result given.
SMILES,GALR2 agonist,PKD1 inh,HSV replic up,HSV replic up primary fold,RGS16-Gao,INS promoter inh,INS promoter inh cell count
O=C(C1CCC(CNc2c(N3CCCCC3)c(=O)c2=O)CC1)N1CCN(C2CCCCC2)CC1 (stereo not given),/,/,i,0.77,102,/,/
C=CCn1c(CCCNC(=O)c2ccccc2OC)nc2ccccc21,/,-2,i,0.87,103,0,151
CCOC(=O)c1ccc2nc(NC(=O)C(C)C)sc2c1,-1.8,-14,i,1.1,102,-40,127
COc1ccccc1/C=N\Nc1ccccc1[N+](=O)[O-],/,/,i,1,95,/,/
O=C(NCCCn1ccnc1)C(Cc1ccc([N+](=O)[O-])cc1)N1C(=O)c2ccccc2C1=O (stereo not given),-1.8,-15,i,0.98,104,51,76
COCc1cc(N2CCCC2)nc(-c2ccccc2)n1,/,-6,i,0.91,118,27,140
C=CCNC(=O)COc1ccc(Oc2ccccc2)cc1,/,-2,i,1.1,100,/,/
O=C(Nc1nc2ccccc2s1)c1ccc(F)cc1,/,-2,i,0.86,99,/,/
CCCCOC(=O)Cn1c(=O)oc2ccc(C)cc21,-1.0,0,i,1.1,104,/,/
Cc1ccc(C(=O)NCC(=O)OCC(=O)c2ccc(C)c([N+](=O)[O-])c2)cc1,-0.9,-11,i,0.94,108,/,/

# 2 records drawn at random from the list so far:
SMILES,GALR2 agonist,PKD1 inh,HSV replic up,HSV replic up primary fold,RGS16-Gao,INS promoter inh,INS promoter inh cell count
C=CCNC(=O)COc1ccc(Oc2ccccc2)cc1,/,-2,i,1.1,100,/,/
Cc1ccc(C(=O)NCC(=O)OCC(=O)c2ccc(C)c([N+](=O)[O-])c2)cc1,-0.9,-11,i,0.94,108,/,/

# Quoted from the listing:
# HSV replic up primary fold result of C=CCNC(=O)COc1ccc(Oc2ccccc2)cc1 stands at 1.1
# GALR2 agonist result of Cc1ccc(C(=O)NCC(=O)OCC(=O)c2ccc(C)c([N+](=O)[O-])c2)cc1 stands at -0.9

# Continuation.
SMILES,GALR2 agonist,PKD1 inh,HSV replic up,HSV replic up primary fold,RGS16-Gao,INS promoter inh,INS promoter inh cell count
CC(C)Sc1n[nH]c2nc3c(c(=O)n12)C1(CCCC1)Cc1ccccc1-3,-2.6,-5,i,1,98,4,129
COc1ccc(N=Cc2[nH]c3ccccc3c2O)cc1,/,-1,i,0.94,82,/,/
CCC(C)(C)n1nnnc1C(c1cccs1)N1CCCCC1 (stereo not given),/,2,i,0.99,89,/,/
Cc1cc(C)nc(NNC2=CC(=[N+]3CCCCC3)CC(C)(C)C2)n1,/,6,i,0.96,99,-50,110
CN(C)c1ccc(NC(=O)Cn2ncn3c(cc4ccccc43)c2=O)cc1,0.7,-2,i,0.81,95,/,/
N/C(=N\N=C\c1cccs1)SC1CC(=O)N(c2ccc(Br)cc2)C1=O (stereo not given),/,0,i,0.9,114,60,136
CCCc1nc2ccc(NC(C)=O)cc2c(=O)n1Cc1ccc(Cl)cc1,/,2,i,0.97,101,33,142
Cc1oc2ccc(NS(=O)(=O)c3ccc(C(C)(C)C)cc3)cc2c1C(=O)Nc1ccccc1,-1.6,-12,i,0.92,106,32,115
Cc1cccc(NC(=S)NCc2ccc(F)cc2)c1,-1.5,-4,/,/,64,8,131
CC(=O)c1ccc(NC(=O)c2ccc(CSc3ccccc3)o2)cc1,-0.7,-8,i,1.1,105,/,/

# Among those listed so far, two have an NH in an aromatic ring:
SMILES,GALR2 agonist,PKD1 inh,HSV replic up,HSV replic up primary fold,RGS16-Gao,INS promoter inh,INS promoter inh cell count
CC(C)Sc1n[nH]c2nc3c(c(=O)n12)C1(CCCC1)Cc1ccccc1-3,-2.6,-5,i,1,98,4,129
COc1ccc(N=Cc2[nH]c3ccccc3c2O)cc1,/,-1,i,0.94,82,/,/

# (further entries)
SMILES,GALR2 agonist,PKD1 inh,HSV replic up,HSV replic up primary fold,RGS16-Gao,INS promoter inh,INS promoter inh cell count
CC1CCN(C(C(=O)Nc2ccc3c(c2)OCO3)c2ccccc2)CC1 (stereo not given),/,-14,i,0.86,105,/,/
CCn1c(CSCc2ccc(C)cc2)nnc1SCC(=O)NCc1ccccc1,-2.6,-5,i,1,97,-20,91
Oc1[nH]c2ccccc2c1N=NC(=S)NCC1CCCO1 (stereo not given),-0.6,3,i,0.93,100,/,/
CCc1nnc(NC(=O)Cc2c[nH]c3ccccc23)s1,/,-4,i,0.96,102,/,/
O=C(CSc1nnc2c(Cl)cc(C(F)(F)F)cn12)N(Cc1ccccc1)Cc1ccccc1,-0.3,-2,i,0.96,100,-50,100
CCn1c(SCC(=O)NC2CCCCC2C)nnc1-c1ccc(OC)cc1 (stereo not given),-1.2,-7,i,0.83,99,-59,113
O=C(CN(Cc1ccc(Cl)c(Cl)c1)S(=O)(=O)c1ccccc1)N/N=C\c1ccc2c(c1)OCO2,-2.6,1,i,0.97,101,27,77
CNC(=O)c1ccc(=O)n(Cc2cccc(C(F)(F)F)c2)c1,/,-6,i,0.95,102,/,/
O=C1CN(C(=O)COC(=O)C23CC4CC(CC(O)(C4)C2)C3)c2ccccc2N1,0.2,-5,i,1,103,56,152
Cc1c(C)c2cc(Cl)c(O)c(CN3CCCCC3)c2oc1=O,1.4,0,i,0.87,98,-16,107
CN(C)C(=O)COn1c(SCC(=O)N(C)C)nc2ccccc2c1=O,-1.0,-7,i,0.86,99,/,/
CC(C)(C)c1cc(NC(=O)c2cccc(S(=O)(=O)N3CCOCC3)c2)no1,-0.6,-1,i,1,96,-13,98
CC(C#N)On1c(SC(C)C#N)nc2ccccc2c1=O (stereo not given),-0.6,1,i,0.9,102,29,83
COc1cccc(N(CC(=O)NCc2ccco2)C(=O)CCC(=O)Nc2nccs2)c1,/,/,i,0.97,99,/,/
CCOc1ccccc1NC(=O)CN1CCC(NC(=O)c2ccccc2C)CC1,/,/,i,0.92,102,/,/
Cc1nc2ncnn2c(C)c1CCC(=O)O,-0.8,-2,i,0.94,100,-394,50
CC(=O)N(c1ccc(Cl)cc1)c1nc(C)cc(C)c1C#N,/,-6,i,1,106,7,122
Cc1ccc(C(C[N+](=O)[O-])c2c(C)[nH]n(-c3ccccc3)c2=O)cc1 (stereo not given),-0.9,-7,i,0.96,97,31,140
CCCCC(C(=O)NC1CCCC1)N(Cc1ccco1)C(=O)Cn1nnc(-c2ccc(F)cc2)n1 (stereo not given),-1.5,1,i,1.1,101,0,32
O=C(Cn1cc(C(F)(F)F)ccc1=O)N/N=C/c1cccc(Cl)c1Cl,0.1,-4,i,0.98,108,22,146
COc1ccc(NC(=O)Cc2c[nH]c3ccccc23)cc1S(=O)(=O)N1CCCCC1,-3.3,2,i,0.85,105,-15,127
Nc1ncnc2nc(SCCOc3ccc(Cl)cc3)[nH]c12,-0.3,-3,i,0.95,100,10,94
O=C(N/N=C/c1cccc2cccnc12)c1ccccc1O,/,/,i,0.76,88,/,/
CC(C)CCN(CC(=O)NC(C)(C)C)C(=O)C(=O)Nc1ccc2c(c1)OCCO2,/,-6,i,0.93,98,/,/
Cc1ccc2cccc(S(=O)(=O)N3CCN(c4cccc(Cl)c4)CC3)c2n1,-2.3,-3,i,1,101,-20,147
O=C(Cn1cnc2c(oc3ccccc32)c1=O)N1CCN(c2ccccc2)CC1,1.2,-4,/,/,103,-31,121
Cc1nn2c3ccccc3n(Cc3ccccc3)c2nc1=O,0.1,-4,i,1,103,12,134
CC(C)Cc1nc2sc3c(c2c(=O)n1N)CC(C(C)C)OC3 (stereo not given),/,/,i,1.1,102,/,/
COc1ccc(/C=C2/S/C(=N/S(=O)(=O)Cc3ccccc3)NC2=O)cc1OC,/,/,i,1,103,/,/
N#Cc1c(N2CCCC2)ccc(Br)c1Cl,/,/,i,0.89,85,/,/
Cc1cccc(C)c1N=Cc1c(O)n(-c2nccs2)c(=O)c2ccccc12,0.4,-15,i,0.84,100,/,/
CC(C)n1nc(C(=O)Oc2cc(Cl)ccc2Cl)c2ccccc2c1=O,-0.6,-13,i,1,165,50,63
CCOC(=O)CSC1=C(C#N)C(c2ccccc2C)C2=C(CCCC2=O)N1 (stereo not given),-1.9,-7,i,1,97,10,71
CCOc1ccc(/C=N/NC(=O)c2csc(C)c2C)c(OCC)c1,-0.6,3,i,0.96,144,-8,101
CC(C)Sc1nnc([C@@H]2CCCN2C(=O)OC(C)(C)C)o1,-2.3,-2,i,1.1,98,-33,144
CNc1c([N+](=O)[O-])cnn1-c1ccccc1F,/,0,i,0.89,101,37,97
NS(=O)(=O)c1ccc(-c2ccc(/C=N/NC(=O)c3ccccc3O)o2)cc1,/,/,i,0.93,99,/,/
CC(=O)Nc1ccccc1OCC(=O)N(Cc1ccccc1)C(C)C,-0.4,-11,i,1,106,/,/
C/C(=N/NC(=O)CN1CCN(Cc2ccccc2Cl)CC1)c1cccs1,/,/,i,0.92,102,/,/
COc1cc(/C=N/NC(=O)C(Cc2c[nH]c3ccccc23)NC(=O)OCC(C)C)cc([N+](=O)[O-])c1OCc1ccccc1 (stereo not given),/,-6,i,0.77,102,/,/
CCN(CC)CCNC(=O)Cn1c(C)cc2ccccc2c1=O,-1.4,-2,i,0.81,100,9,149
COc1ccc(OC)c(/C=N/NC(=O)c2[nH]ncc2Br)c1,/,/,i,1,102,/,/
O=C(O)c1cccc(Nc2ncnc3c2cnn3-c2ccccc2)c1,-2.9,-3,i,1,101,32,115
O=C1CC(c2ccccc2)CC2=C1C(c1ccccn1)Nc1ccccc1N2 (stereo not given),-2.8,1,i,0.7,104,11,89
O=C(CN1CCc2ccccc2C1)NC1CCCC1,/,-2,i,1.1,98,-30,148
O=C1C(C2=NC(c3ccccn3)C3C(=O)N(c4ccc(Cl)cc4Cl)C(=O)C23)=C(O)c2ccccc21 (stereo not given),/,/,i,0.62,96,/,/
O=C(c1ccc(-n2nc(C(F)(F)F)c3c2CCCC3)cc1)N1CCOCC1,/,7,i,1.1,97,11,137
O=C(C1CCN(S(=O)(=O)c2cccc3nsnc23)CC1)N1CCc2ccccc2C1,-1.5,3,/,/,99,50,82
CCCCCn1c(=NC(C)=O)c(C#N)cc2c(=O)n3ccccc3nc21,2.5,0,/,/,90,-3,77
CCCCCCCc1nn2c(=O)cc(O)nc2s1,1.1,-2,i,0.98,99,/,/
# (further entries)
SMILES,GALR2 agonist,PKD1 inh,HSV replic up,HSV replic up primary fold,RGS16-Gao,INS promoter inh,INS promoter inh cell count
COc1ccc(-c2nc(-c3ccccc3)c(-c3cccs3)[nH]2)cc1OC,-2.7,-7,i,0.89,107,21,109
CC(C)(C)NC1=CC(=O)OC12CCCCC2,0.2,11,i,0.91,93,-50,100
COc1ccc(NC(=O)Nc2nnc(CC(=O)NCc3ccccc3)s2)cc1,/,-2,i,0.89,103,/,/
COc1cccc(N2CC(C)Cn3c2nc2c3c(=O)n(CCN3CCOCC3)c(=O)n2C)c1 (stereo not given),0.5,-4,i,0.77,105,-7,79
Nc1ccc(S(=O)(=O)c2ccc(N)cc2)cc1,-0.8,-1,i,0.82,72,5,96
O=C(N/N=C/c1cn(CC(=O)N2CCOCC2)c2ccccc12)c1cccnc1,/,/,i,1.2,107,/,/
CC(/C=N/NC(=O)NC1CCCCC1)=C\c1ccccc1,/,-2,i,0.96,106,/,/
CCC(=O)Nc1cccc(-c2cn3ccsc3n2)c1,-0.2,3,i,0.89,71,-55,79
CS(=O)(=O)N1CCc2cc(C(=O)N3CCCCC3)ccc21,-4.5,-5,i,0.97,99,-53,106
CC(=O)Nc1ccc(S(=O)(=O)NCC(C)NS(=O)(=O)c2ccc(NC(C)=O)cc2)cc1 (stereo not given),-2.2,-12,i,0.92,103,27,121
CCOC(=O)N1CCN(C(=O)CSCC(=O)Nc2nc(-c3ccc(C)cc3)cs2)CC1,-4.3,-4,i,0.84,16,/,/
COc1ccc(OC)c(Cc2nnc(CCC(=O)N3CCCCC3c3nccs3)o2)c1 (stereo not given),/,4,i,0.94,105,/,/
CCCCC1=CC2=C(c3ccco3)C(=O)C(C)(OC(=O)c3ccc(OC)cc3)C(=O)C2=CN1C1CCCCC1 (stereo not given),/,/,i,1.2,98,/,/
COCCCNC(=O)c1cc(Sc2nnc(C)s2)nc2ccccc12,/,/,i,0.89,101,/,/
C=CCn1c(SCC(=O)N2CCCCC2)nnc1-c1ccncc1,/,-4,i,1.1,103,/,/
COc1cc(/C=C(\C#N)C(=O)NCC2CCCO2)cc(OC)c1OC (stereo not given),/,-1,i,0.97,115,29,111
CN(C)C(=C(C#N)C#N)N1CCN(c2ccc(Cl)cc2)CC1,/,-4,i,0.97,107,-26,137
CN=C(Nc1cc(C)nn1CCC#N)c1ccc(F)cc1,0.1,-5,i,1.1,101,/,/
